supercomplex: modulators of mitochondrial supercomplex assembly, cell-based, luminescence, Hoechst nuclei count (AID 1645838); Cells, luminescence/Hoechst cell count ratio, supercomplex reporter; hits give high values; z-score at 11 µM unless noted; actives 5% (n = 2,000);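 active means mean z-score of two plates above 1.96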;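 further: control cybrid cells; higher means more mitochondrial supercomplex formation; U2OS-based cells read after two days; 0 = mean of sample wells on the plate; doses worked out from stocks diluted about 900-fold with the highest of each compound shown; many of its hits are not listed in these tables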
supercomplex cell count: recorded beside supercomplex, whose call it bears; cell count; measured here: cell number, Hoechst nuclei count;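 nuclei per well as mean of two plates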
* hit, by the source's call; i = inactive; · = no result given. This is a subset, so the mix of outcomes need not match the whole.

Each structure is followed by: supercomplex | supercomplex cell count
> COc1ccc(Cc2nccc3cc(OC)c(OC)cc23)cc1OC
  1.31 | 5496
> COc1cccc(-c2ccc(NC(=O)C3=C(C(=O)O)CCC3)c(F)c2)c1
  7.02* | 3756*
> Cc1cc(C)c(N(Cc2ccccc2)S(=O)(=O)c2ccc(OCCNC(=O)c3cc4ccccc4o3)cc2)c(C(=O)NO)c1
  0.583 | 4722
> CCCn1c(=O)c2[nH]c(-c3ccc(OCC(=O)Nc4ccc(C#N)cc4)cc3)nc2n(CCC)c1=O
  -0.206 | 6164
> O=c1c(-c2ccc(O)cc2)coc2cc(O)cc(O)c12
  2.63* | 5449*
> CC(C)CN(CC(O)C(Cc1ccccc1)NC(=O)OC1CO[C@@H]2OCC[C@@H]12)S(=O)(=O)c1ccc(N)cc1 (stereo not given in full)
  -0.456 | 5709
> C=CCn1c(=O)c2cnc(Nc3ccc(N4CCN(C)CC4)cc3)nc2n1-c1cccc(C(C)(C)O)n1
  i | ·
> C=CC(=O)Nc1cccc(Nc2nc(NC3CCC(N(C)C)CC3)nc3c2ncn3C(C)C)c1 (stereo not given)
  i | ·
> Cc1csc2c(NC(C)CN3CCN(S(=O)(=O)c4ccc(Cl)c(Cl)c4)CC3)ncnc12 (stereo not given)
  0.755 | 5602
> Cc1cc(=O)[nH]c(O)c1C#N
  0.338 | 6663
> CC(C)(C)OC(=O)N1CCC(OC2CCNCC2)CC1
  0.428 | 4417
> CCOCc1nc2c(N)nc3ccccc3c2n1CC(C)(C)O
  -0.57 | 6952
> COC(=O)c1cnn(-c2ccc(F)cc2F)c1C=NNC(=S)NC(C)(C)C
  -0.323 | 6384
> O=c1[nH]oc2cc(Cl)ccc12
  0.402 | 6305
> C=CC(=O)Nc1cc(NC(=O)c2ccc(C)c(NC(=O)c3ccno3)c2)cc(C(F)(F)F)c1
  0.353 | 2418
> Cc1cc(-c2ccccc2)nc2cc(C(=O)Nc3cccc(O)c3)nn12
  -0.672 | 5112
> Clc1ccc2nsnc2c1NC1=NCCN1
  -0.391 | 5868
> CCNC1CC(C)S(=O)(=O)c2sc(S(N)(=O)=O)cc21 (stereo not given)
  0.127 | 5180
> Cc1cc(CS(=O)(=O)c2ccccc2)cc(OCc2ccc(CN3CCCC3CO)cc2)c1 (stereo not given)
  -0.221 | 5126
> Cc1nn(C)c2nc(NNC(=O)Nc3cc(Cl)nc(Cl)c3)cc(C(C)C)c12
  -0.0719 | 5670

Not a retest: an excerpt of the list.
Each structure is followed by: supercomplex | supercomplex cell count
> COc1ccc(Cc2nccc3cc(OC)c(OC)cc23)cc1OC
  1.31 | 5496
> COc1cccc(-c2ccc(NC(=O)C3=C(C(=O)O)CCC3)c(F)c2)c1
  7.02* | 3756*
> Cc1cc(C)c(N(Cc2ccccc2)S(=O)(=O)c2ccc(OCCNC(=O)c3cc4ccccc4o3)cc2)c(C(=O)NO)c1
  0.583 | 4722
> CCCn1c(=O)c2[nH]c(-c3ccc(OCC(=O)Nc4ccc(C#N)cc4)cc3)nc2n(CCC)c1=O
  -0.206 | 6164
> O=c1c(-c2ccc(O)cc2)coc2cc(O)cc(O)c12
  2.63* | 5449*
> CC(C)CN(CC(O)C(Cc1ccccc1)NC(=O)OC1CO[C@@H]2OCC[C@@H]12)S(=O)(=O)c1ccc(N)cc1 (stereo not given in full)
  -0.456 | 5709
> C=CCn1c(=O)c2cnc(Nc3ccc(N4CCN(C)CC4)cc3)nc2n1-c1cccc(C(C)(C)O)n1
  i | ·
> C=CC(=O)Nc1cccc(Nc2nc(NC3CCC(N(C)C)CC3)nc3c2ncn3C(C)C)c1 (stereo not given)
  i | ·
> Cc1csc2c(NC(C)CN3CCN(S(=O)(=O)c4ccc(Cl)c(Cl)c4)CC3)ncnc12 (stereo not given)
  0.755 | 5602
> Cc1cc(=O)[nH]c(O)c1C#N
  0.338 | 6663
> CC(C)(C)OC(=O)N1CCC(OC2CCNCC2)CC1
  0.428 | 4417
> CCOCc1nc2c(N)nc3ccccc3c2n1CC(C)(C)O
  -0.57 | 6952
> COC(=O)c1cnn(-c2ccc(F)cc2F)c1C=NNC(=S)NC(C)(C)C
  -0.323 | 6384
> O=c1[nH]oc2cc(Cl)ccc12
  0.402 | 6305
> C=CC(=O)Nc1cc(NC(=O)c2ccc(C)c(NC(=O)c3ccno3)c2)cc(C(F)(F)F)c1
  0.353 | 2418

New compounds follow:
Each structure is followed by: supercomplex | supercomplex cell count
> CCOC(=O)N1c2ccc(C(F)(F)F)cc2C(N(Cc2cc(C(F)(F)F)cc(C(F)(F)F)c2)C(=O)OC)CC1CC (stereo not given)
  -0.0505 | 5948
> CC(C)(c1cc(Br)c(OCC(O)CN2CCOCC2)c(Br)c1)c1cc(Br)c(OCC(O)CN2CCOCC2)c(Br)c1 (stereo not given)
  -0.719 | 4956
> Cc1c(CC(=O)O)c2cccnc2n1Cc1ccc(S(C)(=O)=O)cc1C(F)(F)F
  -0.27 | 5885
> Oc1ccc(Nc2nc(-c3ccc(Cl)cc3)cs2)cc1
  1.99* | 2612*
> CC(=O)N=c1sc(S(N)(=O)=O)nn1C
  -0.127 | 4958
> CSc1nc2cc(Oc3cccc(Cl)c3Cl)c(Cl)cc2[nH]1
  -0.235 | 4722
> CC(=O)OCC(=O)NCCCOc1cccc(CN2CCCCC2)c1
  -0.812 | 5366
> CCCCc1oc2ccc(NS(C)(=O)=O)cc2c1C(=O)c1ccc(OCCCN(CCCC)CCCC)cc1
  i | ·
> COc1ccc(C2(CNC(=O)[C@](C)(Cc3c[nH]c4ccccc34)NC(=O)Nc3ccc([N+](=O)[O-])cc3)CCCCC2)nc1
  1.52 | 4711
> COc1cc2ncnc(Nc3ccc(F)c(Cl)c3)c2cc1OCCCN1CCOCC1
  1.23 | 4943
> NS(=O)(=O)OCC1CC(n2ccc3c(NC4CCc5ccccc54)ncnc32)CC1O (stereo not given)
  i | ·
> NCc1cc(-c2cccnc2)no1
  -0.289 | 7198
> Cc1ccc(-c2nn(C(C)(C)C)c3ncnc(N)c23)cc1
  5.9* | 4642*
> CCCOc1ccc(Br)cc1-c1cc(-c2ccc(Cl)cc2)[nH]c1-c1ccncc1
  -1.05 | 6360
> O=Nc1c(O)[nH]c2c(Cl)c(Cl)ccc12
  -0.392 | 4834
> CC(NC(=O)c1cc(Cl)ccc1Oc1ccc(F)cc1)c1ccc(C(=O)O)cc1 (stereo not given)
  1.15 | 4774
> COc1ccc(OCC2c3cc(OC)c(OC)cc3CCN2C(=O)c2ccc(Cl)cc2)cc1 (stereo not given)
  0.0863 | 5011

Source: PubChem
